MLL AF4-AF9 inh: MLL-AF4/AF9 protein interaction inhibition. hit rate 0.47% among 350,000. AID 651704. AlphaScreen, biotin-AF4 peptide binding to FLAG-AF9. inhibition, % at 10 µM. P42568;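 active = every replicate reaching a set inhibition limit, whatever the replicate mean, cut at about 25% in these data; inconclusive = mean inhibition reaches that limit but some replicates miss it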;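 note: 0% = plate neutral control median and 100% = total signal loss; the record names both 10 and 1 µM as test concentration; the first replicate is given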
Target sequence (P42568 whole entry, looked up): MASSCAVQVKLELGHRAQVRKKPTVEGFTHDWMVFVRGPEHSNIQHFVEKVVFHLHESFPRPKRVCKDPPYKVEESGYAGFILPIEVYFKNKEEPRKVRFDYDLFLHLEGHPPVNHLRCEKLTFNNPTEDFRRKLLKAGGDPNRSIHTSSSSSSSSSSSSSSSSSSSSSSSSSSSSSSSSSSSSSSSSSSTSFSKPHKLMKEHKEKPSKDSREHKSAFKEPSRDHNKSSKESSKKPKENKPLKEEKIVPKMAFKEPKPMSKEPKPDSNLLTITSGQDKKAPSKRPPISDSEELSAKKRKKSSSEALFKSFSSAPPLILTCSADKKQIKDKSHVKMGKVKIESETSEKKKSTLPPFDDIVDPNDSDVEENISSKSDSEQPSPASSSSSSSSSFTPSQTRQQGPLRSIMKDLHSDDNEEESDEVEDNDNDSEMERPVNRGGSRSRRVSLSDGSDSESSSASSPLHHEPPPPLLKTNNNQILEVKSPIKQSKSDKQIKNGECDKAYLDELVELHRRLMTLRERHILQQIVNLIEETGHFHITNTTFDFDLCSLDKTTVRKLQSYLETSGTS
Beta apoptosis: beta cell apoptosis inhibition; INS-1E cytokine-induced death, ATP luminescence, 48 h; percent of positive-control rescue, neutral wells zero; hit rate 0.8% among 300,000; protection from apoptosis, % (concentration not given with the values);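 active = all replicates at 75% or more, or half of them and the mean; inconclusive = half reach 75% but not the mean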;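 note: 0% = cytokine-treated negative control wells and 100% = positive control rescue; higher means more ATP so stronger rescue from cytokine killing; wells of about 40 µL received 100 nL stock; the first replicate is given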
T cruzi inh: blocks replication of Trypanosoma cruzi | T. cruzi beta-gal in NIH3T3, luminescence, 90 h | inhibition, % (no concentration beside the values) | hit rate 1.4% among 300,000;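 active = mean inhibition across valid replicates above about 55%, limit read from the data; inconclusive = mean below that limit but half or more replicates reach it; inactive = mean below it, under half of replicates reach it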;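 note: signal also drops with host cell toxicity which is not excluded here; 0% = plate median of DMSO wells and 100% = zero luminescence signal; higher percent means less beta-gal luminescence so fewer parasites; stock transfer was 50 nL into about 50 µL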
Calb FLC: affects C. albicans growth with fluconazole; C. albicans CaCi-2 (fluconazole-resistant clinical isolate) + fluconazole, Alamar Blue growth, 48 h; growth inhibition, % (no concentration beside the values); hit rate 0.57% among 300,000;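 active = most replicates above 75%; inconclusive = exactly half above 75%; inactive = most below 75%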;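 note: all wells also contain fluconazole at 8 µg/ml as a sub-toxic cotreatment; 0% = median of DMSO wells and 100% = median of geldanamycin control wells; wells of about 8 µL received 7.5 nL stock; the first replicate is given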
Vif A3G: inhibitors of Vif binding to APOBEC3G peptide, primary screen, biochemical, TR-FRET, GST-Vif 1-94, biotin-A3G peptide, dose response retest (AID 1117319); hit rate 0.57% among 260,000; TR-FRET GST-Vif / biotin-A3G peptide binding; higher % means a stronger effect; test concentration not given here; strong numbers were not always called active; inhibition, %, or IC50 in µM where a hit was titrated;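 active = above the screen mean plus three standard deviations and confirmed in dose response; inconclusive = results disagree or hit not tested in dose response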;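 note: Vif residues 1-94 fused to GST binding biotinylated APOBEC3G peptide 110-148; 0% = full assay without inhibitor and 100% = GST in place of GST-Vif; retest series ran down from 100 µM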
Ecoli rRNA inh: inhibitors of bacterial rRNA selective over humanized ribosomes. E. coli WT GFP vs humanized-ribosome RFP mutants, fluorescence, 24 h; hits give low values; DMSO median 0, no signal -100. GFP signal change (wild-type ribosome), % (no concentration beside the values). hit rate 1.6% among 350,000. AID 720706;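 active = significant combined selectivity score with lowered wild-type GFP, culture density cut under 30%, mutant RFP and density less affected; inactive = any of these conditions unmet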; note: one replicate is shown; some compounds called inactive have numbers as strong as hits
RanGTP-Impb inh: disruptors of Ran-importin-beta complex formation – biochemical, FRET, CFP-Ran, YFP-importin-beta, homogeneous, primary screen; AID 2216; hit rate 1.1% among 300,000; inhibition, % (no concentration beside the values); cell-free CFP-Ran/YFP-importin-beta FRET ratio;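 active = most replicates above 15%; inconclusive = exactly half above 15%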;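 note: 0% = DMSO wells and 100% = Ran loaded with GDP instead of GTP; wells of about 40 µL received 100 nL stock; the first replicate is given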
Bfl-1 A1 inh: inhibitors of the anti-apoptotic protein A1, read as caspase activation. MEF A1-2A-BIM cells, Caspase-Glo 3/7 luminescence, 3 h; percent of clofoctol response, vehicle zero. caspase activation, % (concentration not given with the values). hit rate 0.066% among 330,000;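 active = over half of replicate activation scores above 10%, or exactly half above 10 with the replicate mean above 10; inconclusive = replicate mean below 10 yet half the replicates above 10; inactive = over half of replicates below 10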;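 note: wells of about 30 µL received 50 nL stock; many hits fall short of the cut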
Ecoli rRNA inh OD600: also measured in Ecoli rRNA inh; calls as there; OD600 change, %; measured here: OD600 growth;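 optical density of the mix in the first replicate; 0 = DMSO median and -100 = no signal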
Ecoli rRNA inh RFP: also measured in Ecoli rRNA inh; calls as there; RFP signal change, %; measured here: RFP humanized mutant strains;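 first replicate; 0 = DMSO median and -100 = no signal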
An asterisk follows results filed as active; ? = inconclusive; . = not tested or not shown.

SMILES	MLL AF4-AF9 inh	Beta apoptosis	T cruzi inh	Calb FLC	Vif A3G	Ecoli rRNA inh	Ecoli rRNA inh OD600	Ecoli rRNA inh RFP	RanGTP-Impb inh	Bfl-1 A1 inh
CCOc1ncccc1C(=O)Oc1ccc2c(c1)OCO2	.	-4	11	20	0%	.	.	.	0.9	0.4
COc1ccc(C2=NN(CCC(=O)NC3CCCCCC3)C(=O)CC2)cc1	-4.4	3	-10	-1	.	3	1	1.5	1.6	1.7
O=C(NCCc1c[nH]c2ccccc12)c1cc2ccccc2oc1=O	-3.2	-2	-7	17	-1%	-5	1	-0.9	-1.6	-0.6
COC(=O)c1cn(Nc2ncc(C(F)(F)F)cc2Cl)c(=O)c2ccccc12	.	5	15	21	-6%	.	.	.	3.9	1.0
COC(=O)c1[nH]c2cc(OC)ccc2c1NC(=O)CCN1CCN(c2ccccc2)CC1	.	.	5	8	-1%	.	.	.	-4.5	-2.6
O=C1N(Nc2ccccc2)C(c2ccc(Br)cc2)C12CCCC2 (stereo unspecified)	.	-4	17	?	16%	.	.	.	-2.8	-0.6
COc1cc(-c2n[nH]c(=S)n2-c2ccc(C)cc2)cc(OC)c1OC	.	-1	5	?	-5%	.	.	.	-2.6	-0.7
O=c1cc(CSc2ccccn2)[nH]c(=O)[nH]1	.	-2	-3	.	8%	.	.	.	8.7	-0.7
O=C(COc1ccc(F)cc1Cl)N1CCN(C(=O)c2cccs2)CC1	-5.1	-2	.	.	.	-8	-6	1.1	.	-0.2
CCOC(=O)CSc1nnc(CNC(=O)c2ccc(OC)c(OC)c2)n1C	.	.	-6	-2	-2%	.	.	.	6.7	-0.8
Cc1cc(-c2ccccc2N)n[nH]1	.	-5	-24	4	-5%	.	.	.	4.1	0.1
CCOc1cc(N2CCOCC2)c(OCC)cc1NC(=O)COc1cccc(Cl)c1	3.0	1	8	19	3%	8	9	2.0	1.8	1.4
CCc1cc(=O)oc2cc(C)cc(OC(C)C(=O)NCCCN3CCCC3=O)c12 (stereo unspecified)	2.3	-3	-2	8	.	-5	-6	-1.2	7.3	0.7
Cc1ccc(C)c(OCC(=O)Nc2cccc(C(=O)O)c2)c1C	.	4	-2	4	-3%	.	.	.	-5.1	-2.4
O=C(NCC(O)c1ccc2ccccc2c1)c1c(F)cccc1F (stereo unspecified)	0.4	2	1	-4	-6%	-6	-1	1.9	-0.2	0.5
O=C1CCCN1CCCNc1ncccc1[N+](=O)[O-]	1.0	-1	-3	1	.	9	11	2.2	?	0.2
O=C(Nc1ccc(OC(F)(F)F)cc1)c1ccc(-n2cncn2)nc1	-0.4	4	5	1	6%	2	4	0.2	6.7	-0.2
CC(C)(C)N(C(=O)Cn1nnc(-c2ccc(F)cc2)n1)C(C(=O)NC1CCCC1)c1ccncc1 (stereo unspecified)	.	-5	13	3	3%	.	.	.	-1.5	-0.3
Cc1cc(=O)oc2cc(OCC(=O)NCCc3nc4ccccc4[nH]3)ccc12	.	-1	-15	4	-26%	.	.	.	-3.1	0.2
c1ccc(-c2ccc3sccc3n2)cc1	-6.4	-3	0	3	.	0	8	0.7	?	-10
O=C(NCCc1nnc2ccc(SCC(=O)N3CCCC3)nn12)c1ccc(F)cc1	3.2	0	-7	-6	.	1	6	-2.7	3.3	-0.2
Cc1ccc2nc(C3CCCN(C(=O)NCc4ccccc4)C3)[nH]c2c1 (stereo unspecified)	.	0	-5	39	-1%	.	.	.	.	0.5
N#Cc1cccc(CSc2nnc(CCCO)n2-c2ccccc2)c1	.	1	17	-2	3%	.	.	.	0.4	0.7
CCOc1cc(N2CCOCC2)c(OCC)cc1NC(=O)COC(=O)c1cc(C)cc(C)c1	-2.2	6	16	-4	24%	10	7	-0.9	-0.8	0.0
O=C(COc1ccccc1F)Nc1ccc(S(=O)(=O)N2CCCC2)cc1	-1.0	-3	.	.	2%	-19	-15	-2.1	.	0.8
(continued)
SMILES	MLL AF4-AF9 inh	Beta apoptosis	T cruzi inh	Calb FLC	Vif A3G	Ecoli rRNA inh	Ecoli rRNA inh OD600	Ecoli rRNA inh RFP	RanGTP-Impb inh	Bfl-1 A1 inh
C/C(Cl)=C\Cn1c(O)c(N=NC(N)=S)c2ccccc21	2.0	11	60*	-17	11%	-22	-29	-7.8	1.6	0.7
O=[N+]([O-])c1ccccc1S(=O)(=O)NC1CCCC1	-11	-2	-26	-3	13µM*	5	6	-3.8	2.1	0.3
COc1ccc(CCNS(=O)(=O)c2cc3c4c(c2)CC(=O)N4CCC3)cc1	-3.6	-1	14	-11	0%	-7	-11	-0.8	-1.4	?
CCOC(=O)C1CCN(C(=O)COC(=O)COc2ccccc2OC)CC1	.	-2	2	5	-2%	.	.	.	-3.6	0.0
CCc1cccc(C)c1NS(=O)(=O)c1c(C)nc2sccn2c1=O	-4.0	0	-9	-8	.	-10	-24	-0.7	5.2	0.4
C=CCNc1ncnc2c1cnn2-c1ccc(C)cc1C	-1.8	2	1	-10	3%	0	1	-1.9	-2.1	0.5
O=c1cc(CSc2nnc(-c3ccccc3)o2)c2ccccc2[nH]1	-0.9	5	3	-1	?	0	0	-3.5	-0.1	-0.4
O=C(CSc1nc(O)c(C2CCCCC2)c(=O)[nH]1)N1CCOCC1	0.0	-1	-17	-10	6%	4	-1	0.4	-2.8	0.3
Cc1[nH]c2ccccc2c1C(C[N+](=O)[O-])c1cccs1 (stereo unspecified)	7.4	-2	26	-12	-1%	-35	-49	-3.0	-7.6	0.1
CCCn1c2ccccc2c2nnc(SCC(=O)Nc3c(C)n(C)n(-c4ccccc4)c3=O)nc21	1.0	1	-5	-3	4%	-21	-14	-1.0	1.7	-0.2
Cc1ccc(C(=O)NCN2CCN(c3ccc(F)cc3)CC2)cc1	-20	-1	.	.	-1%	5	11	1.2	.	0.5
CCN1CCN(CCC(=O)Nc2cccc(C)c2)CC1	-0.1	-5	-11	-9	-3%	6	11	-1.1	0.1	-0.2
S=C(NCCNC(=S)Nc1ccccc1)Nc1ccccc1	-0.4	.	-31	-5	5%	-7	-9	-0.1	4.4	1.0
CC1(c2ccc3ccccc3c2)NC(=O)N(CC(=O)N2CCCC(C(F)(F)F)C2)C1=O (stereo unspecified)	2.9	-6	.	.	1%	-2	5	-3.1	.	0.5
Cc1ccc(NC(=O)C2CC3CCC2C3)c(Br)c1 (stereo unspecified)	-4.3	0	-7	25	-1%	-3	-3	-2.9	-1.6	0.4
C=C(C)c1cccc(C(C)(C)NC(=O)N2CCCC(C(N)=O)C2)c1 (stereo unspecified)	.	.	-17	14	3%	.	.	.	3.9	0.7
COc1cccc(C(=O)Nc2cccc(S(=O)(=O)NC3=NCCC3)c2)c1	-2.4	3	.	.	-1%	5	12	-2.0	.	0.8
CC(C)CC(=O)Nc1c2c(nn1-c1cccc(Cl)c1)CS(=O)C2 (stereo unspecified)	-1.1	4	-12	2	4%	13	12	2.2	4.0	0.0
Cc1ccc(S(=O)(=O)CCC(=O)OC(C)C(=O)c2c(C)[nH]c3ccccc23)cc1 (stereo unspecified)	7.6	-6	-3	2	1%	8	6	-9.6	-4.5	0.0
CC1CCC2(CC1)NC(=O)N(CC(=O)Nc1cccc(S(=O)(=O)N3CCOCC3)c1)C2=O (stereo unspecified)	-20	-3	-6	-6	6%	-2	-2	4.5	6.7	0.6
COc1ccc(S(=O)(=O)N2CCOCC2)cc1NC(=O)CSc1n[nH]c(=O)n1C1CC1	-11	-1	-7	-4	0%	13	7	6.6	-0.4	0.5
CC(C)(C)Cc1nnc(NC(=O)c2ccc3c(c2)OCO3)s1	0.5	8	-8	-42	-5%	3	1	-3.1	2.0	-0.7
O=C(N/N=C/c1ccc(Cl)c([N+](=O)[O-])c1)c1cc(-c2ccccc2)nc2ccccc12	1.1	3	4	11	8%	10	12	0.8	1.9	-1.4
COC(=O)[C@]1(C)N[C@H](CN(C)S(=O)(=O)c2ccc(C)cc2)[C@@H]2C(=O)N(Cc3ccccc3)C(=O)[C@@H]21	-2.9	-3	.	.	3%	10	10	1.2	.	0.4
COc1ccc(-n2c(-c3ccc(Br)cc3)c[n+]3c2CCc2ccccc2-3)cc1	4.5	104*	60*	72	17%	-53	-78	-16	-5.8	-0.8
Next entries follow.
SMILES	MLL AF4-AF9 inh	Beta apoptosis	T cruzi inh	Calb FLC	Vif A3G	Ecoli rRNA inh	Ecoli rRNA inh OD600	Ecoli rRNA inh RFP	RanGTP-Impb inh	Bfl-1 A1 inh
CCCC(=O)NC(=S)Nc1cc(-c2nc3ncccc3o2)ccc1C	1.5	-6	1	0	13%	0	0	-1.8	1.7	-0.2
O=C1CC(c2ccccc2)n2nc(NC(=O)C3CCCO3)nc2N1 (stereo unspecified)	.	-4	-8	-12	-1%	.	.	.	6.9	1.8
COc1ccc(C2CC(c3ccccc3)=NN2c2ccc(Cl)c(C(=O)O)c2)cc1 (stereo unspecified)	-13	1	-3	42	.	-31	-44	-6.4	1.5	-0.6
O=C(NCCC1CCCCN1S(=O)(=O)c1ccccc1)C(=O)NC1CC1 (stereo unspecified)	4.6	.	-8	-2	.	5	-5	-2.5	4.3	-0.7
c1ccc2c(c1)nc1sccn12	.	-6	-23	9	2%	.	.	.	6.6	0.4
CC(C)Nc1nc(Cl)nc(N(C#N)CN2C(=O)c3ccccc3C2=O)n1	.	-11	-26	-5	12%	.	.	.	-5.4	0.3
O=C(Nc1ccc2c(c1)nc1n2CCSC1)c1ccccc1	.	.	-5	-4	2%	.	.	.	4.4	-6.5
COc1ccc(NC(=O)C(=O)NCCC2CCCCN2S(=O)(=O)c2ccc(F)cc2)cc1 (stereo unspecified)	7.2	-3	13	-4	0%	0	-2	1.1	3.5	0.6
CC12CC3(C)CC(C)(C1)CC(C(=O)NC1=NCCS1)(C2)C3	.	-8	15	-4	11%	.	.	.	-0.3	0.7
Oc1ccc(/C=N/Nc2cccc3cccnc23)c(O)c1	-32	.	-19	-37	?	-14	-3	7.2	-2.6	-8.4
O=C(O)CCn1nc(-c2ccc(F)cc2)cc(Cc2ccccc2)c1=O	.	-3	27	29	-3%	.	.	.	-2.8	0.1
Cc1ccccc1C(=O)Oc1ccc(Cl)cc1C(=S)N1CCOCC1	5.3	1	6	24	4%	-27	-15	-7.0	-1.8	0.2
CC(=O)c1cccc(NC(=O)Nc2cc3sccc3n2C)c1	.	-4	-2	4	16%	.	.	.	-1.0	0.2
CCOC(=O)c1cnc(SCc2nc(N)nc(Nc3ccc(OC)cc3)n2)nc1N	.	-6	-16	10	7%	.	.	.	-0.2	-0.3
Cc1ccccc1OCC(=O)OCC(=O)Nc1cc(S(C)(=O)=O)ccc1Cl	1.6	-4	-1	11	2%	15	10	0.6	-1.7	0.2
Cc1ccc(C(C)C)c(OCC(=O)NN=C(CCl)CCl)c1	.	0	.	-13	26%	.	.	.	0.1	-0.3
CCN1CCN(C(=O)c2cc(-c3ccco3)nc3ccccc23)CC1	0.4	-2	.	.	23%	8	8	-0.8	.	0.7

Not all compounds are listed; the hit share may differ from the screen's.
